Bioassay records from PubChem.
Calb biofilm kill: clotrimazole potentiators killing C. albicans biofilm, primary screen, 4-compound mixtures | AID 1242, 2008 | 120,000 tested, 0.02% active | C. albicans biofilm persisters + clotrimazole, fluorescence viability; primary screen in compound mixtures of four per well | inhibition, % at 7.6 µM;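 active = inhibition above 30.3% in the primary screen of four-compound pools, then above 30% when the compound was retested; inconclusive = passed the primary limit but could not be retested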;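 note: compounds exposed to preformed 24 h biofilms for 48 h; the number belongs to the whole pool; some results filed as inactive read as strong as hits; inactives centre near 12; 0% = biofilm with clotrimazole alone and 100% = kill control; retested singly at about 60 µM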
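Test system: C. albicans CAF4-2 wild-type biofilms; buffer or medium: RPMI/MOPS medium, pH 7.0; schedule: 24 h biofilm formation, then 48 h compound exposure, 37 °C; detection: Alamar Blue fluorescence; measure: percent inhibition of biofilm viability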
Numbers without * were called inactive.

Preview:
COc1ccc(/C(C)=N/N=C(N)N)c(O)c1 was read as Calb biofilm kill 31.
`O=C(Nc1cccc(Cl)c1)Nc1nccs1` gave Calb biofilm kill 13.
Cc1cc(C)c2c(c1)cc(C)c1nnc(SCC(=O)Nc3ccc(S(=O)(=O)N4CCCCC4)cc3)n12 was read as Calb biofilm kill 16.
O=C(NCc1ccc(F)cc1)C1CCN(S(=O)(=O)c2ccc3c(c2)OCCCO3)CC1 was read as Calb biofilm kill 6.

This part in full, from the start:
COc1ccc(/C(C)=N/N=C(N)N)c(O)c1 was read as Calb biofilm kill 31.
`O=C(Nc1cccc(Cl)c1)Nc1nccs1` gave Calb biofilm kill 13.
Cc1cc(C)c2c(c1)cc(C)c1nnc(SCC(=O)Nc3ccc(S(=O)(=O)N4CCCCC4)cc3)n12 was read as Calb biofilm kill 16.
O=C(NCc1ccc(F)cc1)C1CCN(S(=O)(=O)c2ccc3c(c2)OCCCO3)CC1 was read as Calb biofilm kill 6.
CNCCc1ccccn1 was read as Calb biofilm kill 11.
For CCOc1cc(/C=N/NC(=O)CSc2nncn2C)ccc1OC(=O)c1ccc(Cl)cc1 the results were Calb biofilm kill 9.
`COC(=O)c1sccc1NC(=O)CC1C(=O)NCCN1C(=O)c1c(F)cccc1Cl` (configuration not stated) gave Calb biofilm kill 3.
`CC(C)c1nccn1S(=O)(=O)c1cccc([N+](=O)[O-])c1` gave Calb biofilm kill -3.
Screening OCC(Cc1ccc2c(c1)OCO2)C(CO)Cc1ccc2c(c1)OCO2 (configuration not stated) returned Calb biofilm kill 24.
Screening CCc1cc(C(=O)O)c(NC(=O)/C=C/c2ccc(OC)c(OC)c2)s1 returned Calb biofilm kill 17.
For Cc1nc2ccc(S(=O)(=O)N(C)CC(=O)Nc3ccccc3F)cc2s1 the results were Calb biofilm kill 5.
Screening COc1ccc(CC2(CO)CCN(Cc3cnn(-c4ccccc4)c3)CC2)cc1 returned Calb biofilm kill 22.
Screening COc1ccc(Cc2noc(CN(C)Cc3cccc(-n4cccn4)c3)n2)cc1OC returned Calb biofilm kill 29.
`Cc1nnc(SCc2cccc([N+](=O)[O-])c2)o1` gave Calb biofilm kill 28.
COc1cc(-c2cc(C(=O)Nc3ccc(N4CCOCC4)cc3)c3ccccc3n2)cc(OC)c1OC was read as Calb biofilm kill 21.
For CCOc1ccc(CN2CCN(C3CCSCC3)CC2CCO)cc1 (configuration not stated) the results were Calb biofilm kill 12.
`COCCNCCCCOc1ccc(C)cc1[N+](=O)[O-]` gave Calb biofilm kill 16.
O=C(NC1CCCCC1)C(c1ccncc1)N(Cc1ccc2c(c1)OCO2)C(=O)C(F)(F)F (configuration not stated) was read as Calb biofilm kill 8.
Screening c1ccc(Oc2nnc(-c3cccs3)c3ccccc23)cc1 returned Calb biofilm kill 6.
`CC12COC3(C(=O)Nc4ccccc4F)CC1CCC32C` (configuration not stated) gave Calb biofilm kill 12.
For O=C(CSc1cnc2ccccc2n1)c1ccc(F)cc1 the results were Calb biofilm kill 20.
Screening CCCOc1ccc(NC(=O)CC2C(=O)N(C)C(=S)N2Cc2cccs2)cc1 (configuration not stated) returned Calb biofilm kill 4.
Screening COc1ccc(C(=O)NNC(=S)NC(=O)c2cccnc2)cc1 returned Calb biofilm kill -11.
Screening S=C(NCc1ccco1)NC1CCCc2ccccc21 (configuration not stated) returned Calb biofilm kill 13.

Of the compounds above, 3 contain a nitro group on carbon:
`CC(C)c1nccn1S(=O)(=O)c1cccc([N+](=O)[O-])c1` gave Calb biofilm kill -3.
`Cc1nnc(SCc2cccc([N+](=O)[O-])c2)o1` gave Calb biofilm kill 28.
`COCCNCCCCOc1ccc(C)cc1[N+](=O)[O-]` gave Calb biofilm kill 16.

Remaining list, next part
CC(=O)Nc1ccc(S(=O)(=O)N2CCN(c3cc(C)nc4ncnn34)CC2)cc1 was read as Calb biofilm kill 19.
Screening NS(=O)(=O)c1ccc(CNC(=O)/C=C/c2cccc([N+](=O)[O-])c2)cc1 returned Calb biofilm kill 20.
Screening S=C(Nc1ccc(Br)cc1Cl)Nn1cnnc1 returned Calb biofilm kill 11.
`COc1ccc(Cn2cnc([N+](=O)[O-])c2)cc1[N+](=O)[O-]` gave Calb biofilm kill 12.
CC(C)c1ccc(C2NC(=S)NC3=C2C(=O)CC(C)(C)C3)cc1 (configuration not stated) was read as Calb biofilm kill 4.
Cc1ccc(/C=C/C(=O)OCn2nnc3ccccc3c2=O)o1 was read as Calb biofilm kill 25.
Screening COc1n[nH]c(C(=O)Nc2nc3ccccc3s2)c1[N+](=O)[O-] returned Calb biofilm kill -8.
For O=C1c2ccccc2S(=O)(=O)N1CC1CC(c2ccccc2Cl)=NO1 (configuration not stated) the results were Calb biofilm kill 10.
`O=C1NCCC/C1=N/Nc1cc(F)ccc1F` gave Calb biofilm kill 8.
For CS(=O)(=O)NN1C(=O)c2ccccc2NC1c1cccc(O)c1 (configuration not stated) the results were Calb biofilm kill 6.
For O=C1CC(c2ccsc2)c2ccc3ccccc3c2N1 (configuration not stated) the results were Calb biofilm kill 17.
Cc1nnc(SCC(=O)c2c(N)n(Cc3ccccc3)c(=O)n(C)c2=O)n1C was read as Calb biofilm kill 18.

Retrieved by structure from above, four records:
Screening NS(=O)(=O)c1ccc(CNC(=O)/C=C/c2cccc([N+](=O)[O-])c2)cc1 returned Calb biofilm kill 20.
For CS(=O)(=O)NN1C(=O)c2ccccc2NC1c1cccc(O)c1 (configuration not stated) the results were Calb biofilm kill 6.
For O=C1CC(c2ccsc2)c2ccc3ccccc3c2N1 (configuration not stated) the results were Calb biofilm kill 17.
Screening COc1n[nH]c(C(=O)Nc2nc3ccccc3s2)c1[N+](=O)[O-] returned Calb biofilm kill -8.

The list continues.
For CCN(CC)Cc1oc(-c2ccccc2)cc1C(=O)O the results were Calb biofilm kill 22.
For CCOc1ccccc1NC(=O)/C(C#N)=C/c1c(C)nn(-c2ccccc2)c1Cl the results were Calb biofilm kill 4.
Screening C/C(=N\Nc1nc(-c2cc(C)ccc2C)cs1)c1cc2ccccc2oc1=O returned Calb biofilm kill 12.
`CCCN1CCC(NC(=S)Nc2cccc(Cl)c2Cl)CC1` gave Calb biofilm kill 7.
For Cc1ccc(S(=O)(=O)n2nc(-n3c(C)ccc3C)c3c(F)cccc32)c2ccccc12 the results were Calb biofilm kill 16.
Cc1sc(NC(=O)c2ccco2)c(C(c2cccnc2)N2CCN(CCO)CC2)c1C (configuration not stated) was read as Calb biofilm kill 13.
`Cc1cccc(C)c1NC(=O)C(C)N1CCCCC1` (configuration not stated) gave Calb biofilm kill 13.
For Cc1csc(NC(=O)CSc2nnc(NC(=O)COc3ccc(Cl)cc3)s2)n1 the results were Calb biofilm kill 3.
`O=C(CCCOc1ccccc1)Nc1ccccc1C(F)(F)F` gave Calb biofilm kill 3.
Cc1cc(C)cc(-n2nnn(C3C/C(=N/NC(N)=S)C4OCC3O4)c2=S)c1 (configuration not stated) was read as Calb biofilm kill 24.
For CN(C)/C=C1\SC(=S)N(c2ccc(Br)cc2)C1=O the results were Calb biofilm kill 22.
For O=C(c1cc(S(=O)(=O)N2CCOCC2)ccc1Cl)N1CCN(c2ccccn2)CC1 the results were Calb biofilm kill 17.
For CCCCNC(=S)NNC(=O)c1csc(C)c1CC the results were Calb biofilm kill 9.
Screening S=C(Nc1ccc(Nc2ccccc2)cc1)Nc1ccccn1 returned Calb biofilm kill 14.
For Cc1ccc(-n2nnnc2CCl)cc1 the results were Calb biofilm kill 9.
For O=C(Nc1ccnc(=O)[nH]1)c1sc2ccccc2c1Cl the results were Calb biofilm kill 15.
Screening CCOC(=O)c1c(C)[nH]c(C(=O)N/N=C\c2ccccc2O)c1C returned Calb biofilm kill -3.
Screening Cn1cc(C(=O)N2CCc3ccccc32)cn1 returned Calb biofilm kill 6.
For Cc1ccc(S(=O)(=O)N2CCOC2CNC(=O)C(=O)NCc2cccnc2)cc1 (configuration not stated) the results were Calb biofilm kill 16.
`N#Cc1ccc(C(=O)Nc2cccc3cccnc23)c(F)c1` gave Calb biofilm kill 30.
`CN(C)S(=O)(=O)c1ccc(-c2csc(N/N=C/c3ccc(O)cc3)n2)cc1` gave Calb biofilm kill 16.
COc1ccc(-c2nc(NC(=O)C3CC(=O)N(c4ccc5c(c4)OCCO5)C3)sc2C)cc1 (configuration not stated) was read as Calb biofilm kill 9.
`O=C(O)CN1C(=O)S/C(=C\c2cccnc2)C1=O` gave Calb biofilm kill 5.
`O=C(/C=C/c1cc[n+](CC(=O)c2ccc3cccc4c3c2CC4)cc1)c1ccc2cccc3c2c1CC3` gave Calb biofilm kill inconclusive.
For N#Cc1ccccc1S(=O)(=O)c1ccccc1C(=O)Nc1ccccc1 the results were Calb biofilm kill 11.
For Cc1ccccc1Cc1ccc(Cl)nn1 the results were Calb biofilm kill 15.
Screening COc1ccc(/C=N/OCC(=O)NCC(C)C)c(OC)c1 returned Calb biofilm kill 11.
CC(C)C(=O)Nc1ccc(C(=O)NNC(=O)CCc2ccccc2)cc1 was read as Calb biofilm kill 23.
Screening CC(=O)c1cccc(N(C(=O)Cn2nnc3ccccc32)C(C(=O)NCC2CCCO2)c2ccc(N3CCOCC3)cc2)c1 (configuration not stated) returned Calb biofilm kill 11.
Screening Cc1cc(N2CCN(c3ccccc3)CC2)nc(N2CCOCC2)n1 returned Calb biofilm kill 19.
`CCOC(=O)C1(C)NC(c2ccc(OC)cc2OC)C2C(=O)N(CC)C(=O)C21` (configuration not stated) gave Calb biofilm kill 7.
Screening COc1ccc(Cl)cc1C(=O)NNC(=S)NC1CCCC1 returned Calb biofilm kill 12.
Screening CC(=O)Nc1ccc(NC(=O)CSc2nnc3c4ccccc4n(C)c3n2)cc1 returned Calb biofilm kill 7.
For Cc1nc(C)c(-c2nnc(-c3ccccc3Cl)o2)cc1C(=O)NN the results were Calb biofilm kill 14.
Screening Cc1cc(C(=O)C(C)Sc2cccc[n+]2[O-])c(C)n1-c1ccc(Cl)cc1 (configuration not stated) returned Calb biofilm kill 16.
O=C(NCCc1ccccc1)c1cc(=O)c2ccccc2o1 was read as Calb biofilm kill 8.
CN=c1scc(-c2cccs2)n1/N=C/c1ccc(O)c(O)c1O was read as Calb biofilm kill 27.
For CCCCCCNc1cc(C)oc(=O)c1C(C)=O the results were Calb biofilm kill 11.
For CCOC(=O)/C=C1/N(C)c2ccccc2C1(C)C the results were Calb biofilm kill 17.
O=C(NCCCCc1ccccc1)C1CC(c2ccccc2C(F)(F)F)=NO1 (configuration not stated) was read as Calb biofilm kill 15.
`O=C(NCCOc1ccccc1F)c1cc(F)c(F)cc1Cl` gave Calb biofilm kill 17.
For COC(=O)c1ccc(NC(=S)NNC(=O)CC(C)C)cc1 the results were Calb biofilm kill 8.
Screening CC(=O)n1c(C=Nc2ccccc2)c(O)c2ccccc21 returned Calb biofilm kill 14.
`Fc1cccc(F)c1/C=C/c1ccc2ccccc2n1` gave Calb biofilm kill 8.
O=C(CC1C(=O)NCCN1CC(c1ccccc1)c1ccccc1)NC1CC1 (configuration not stated) was read as Calb biofilm kill 12.
Screening O=C1C(=O)c2ccc(-c3ccccc3)cc2-c2ccccc21 returned Calb biofilm kill 7.
O=C(NCCC1CC1(Cl)Cl)Nc1ccccc1 (configuration not stated) was read as Calb biofilm kill 2.
O=C1NC2(CCCCC2)C(=O)N1Cc1ccc([N+](=O)[O-])cc1 was read as Calb biofilm kill 11.
`CC(C)(C)OC(=O)C(Cl)(C(=O)OC(C)(C)C)c1ccc2nnnn2n1` gave Calb biofilm kill 37.
For O=C(c1ccc(Cl)c(S(=O)(=O)N2CCCC2)c1)N1CCN(c2ccccc2)CC1 the results were Calb biofilm kill 6.
For COc1ccc(NC(=O)Cc2ccc(-c3ccccc3)cc2)cn1 the results were Calb biofilm kill -1.
`COc1ccc(OC)c(S(=O)(=O)NC(N)=NCCc2ccccc2)c1` gave Calb biofilm kill 14.
For O=C(CCCN1C(=O)/C(=C/c2cccs2)SC1=S)Nc1cccnc1 the results were Calb biofilm kill 0.
For Cc1cc(S(=O)(=O)N2CCCC2)ccc1OCC(=O)NC1CCCC1 the results were Calb biofilm kill 14.
For NC(=O)C1CCN(C(=O)/C=C/c2cccc(Br)c2)CC1 the results were Calb biofilm kill 14.
CC1CCN(C(=O)COC(=O)CCc2c[nH]c3ccccc23)CC1 was read as Calb biofilm kill 8.
Screening Cc1nc2ccccn2c1C(=O)NN=C1C2CC3CC(C2)CC1C3 returned Calb biofilm kill 15.
For Cc1ccc(S(=O)(=O)N2CCCOC2CNC(=O)C(=O)NCc2cccnc2)cc1 (configuration not stated) the results were Calb biofilm kill 11.
Screening O=C(NC1CC1)C1CCCN1C(=O)NC1CCCCC1 (configuration not stated) returned Calb biofilm kill 10.
`Cc1ccsc1/C=N/Nc1nc(=O)[nH]nc1C` gave Calb biofilm kill 26.
Cc1ncc([N+](=O)[O-])n1Cc1cccc2ccccc12 was read as Calb biofilm kill 16.
Screening Cc1cnc(C(=O)OCC(=O)N2c3ccccc3CC2C)cn1 (configuration not stated) returned Calb biofilm kill -2.
Screening CCOc1ccc(NC(=O)c2ccco2)c([N+](=O)[O-])c1 returned Calb biofilm kill 16.
Screening COCCCNC(NC(=O)c1ccc(OC)cc1)C(Cl)(Cl)Cl (configuration not stated) returned Calb biofilm kill 16.
Cc1ccc(-c2nc(NCC3CCCO3)sc2C)cc1 (configuration not stated) was read as Calb biofilm kill 6.
Cc1ccc2c(Cl)cc(Cl)c(OCC(=O)Nc3ccc(C)c(S(=O)(=O)N(C)C)c3)c2n1 was read as Calb biofilm kill 10.
`O=C(N/N=C/c1cn[nH]c1-c1ccccc1)c1ccco1` gave Calb biofilm kill 15.
Cc1ccc(/C=C/C(=O)c2ccc(O)cc2)cc1 was read as Calb biofilm kill 19.
Screening COC(=O)c1scc(C)c1NC(=O)/C=C/C(=O)O returned Calb biofilm kill 19.

These rows are one share of the data; the hit share may differ from the screen's.
